# Ba CapD inh – Bacillus anthracis CapD inhibitors, primary screen, biochemical, fluorescence intensity. purified CapD enzyme, fluorescence intensity read-out; hits give low values; some hits fall short of the stated cut. hit rate 0.23% among 140,000. AID 492967, 2010. CapD gamma-glutamyltranspeptidase (Bacillus anthracis Ames Ancestor). z-score (no concentration beside the values);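 active means z-score under -4 in either of two replicates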;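 further: stock transfer was 100 nL into about 40 µL; score is relative to mean and spread of the plate; one replicate is shown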
# AID504770 – growth inhibition of E. coli YBA685, primary screen, V. cholerae RctB inhibitors; E. coli YBA685 rctB-dependent plasmid, OD600 growth, 3 h; hits give low values; z-score (concentration not given with the values); hit rate 0.27% among 130,000; AID 504770, 2011;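 active means z-score under -2 on both plates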;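 further: wells of about 30 µL received 100 nL stock; score is relative to mean and SD of the test wells; the first replicate is given; strong numbers were not always called active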
# The depositor's hits bear a star; / = no result given. These rows are one share of the data, so the mix of outcomes need not match the whole.
SMILES,Ba CapD inh,AID504770
CC(Oc1ccccc1C(C)C)C(=O)O (centres undefined),/,-0.85
CCOc1ccc(Br)cc1C=Nc1ccc2c(c1)OCO2,1.85,-0.75
CCOC(=O)C1CCN(C(=O)c2c[nH]c3ccc(S(=O)(=O)N(C)c4ccc(F)cc4)cc3c2=O)CC1,3.15,/
CCOC(=O)C1C(=O)C=C(c2ccco2)CC1c1ccc(OC)cc1 (centres undefined),-0.835,-0.2
CC(C)(C)NC(=S)Nc1cc(C(F)(F)F)cc(C(F)(F)F)c1,-0.61,1.85
Cc1nc(SCC(=O)Nc2c(C)nn(C)c2C)c2cnn(-c3ccccc3)c2n1,/,0.25
O=C(CCCc1c[nH]c2ccccc12)Nc1ccccc1N1CCOCC1,/,1.1
CC(C)(C)C(=O)Nc1noc2ccccc12,-3.1,-0.3
O=C(CSc1ncnc2c1oc1ccccc12)c1ccc(Cl)cc1,/,-0.45
CC(=O)N1CCc2cc(NC(=S)NCc3cccs3)ccc21,-0.945,-0.1
N#Cc1ccc(/C=N/NC(=O)c2ccc([N+](=O)[O-])o2)cc1,1.86,/
COc1ccc(NC(=O)COc2cccc3c2CCN(C)C3=O)cc1,/,0.05
COc1ccc(C(CNC(=O)COc2ccccc2)N2CCCCC2)cc1 (centres undefined),/,1.75
Cc1ccccc1-c1n[nH]c(=S)o1,5.64,0
CCOC(=O)c1ccc(NC(=S)NC2CCS(=O)(=O)C2)cc1 (centres undefined),/,-0.75
COc1ccc(CCn2c(SCC(N)=O)nc3c(sc4ccccc43)c2=O)cc1OC,-0.65,3.15
COc1cccc(N=CC2=C3N(CCC2)c2ccccc2C3(C)C)c1,-3.27,-0.7
Cn1c2c(c(=O)n(C)c1=O)C(c1ccccc1)C(C#N)=C(N)O2 (centres undefined),-0.125,-2.3
O=C(Nc1ccccc1N1CCOCC1)c1cc(C2CC2)nn1-c1ccccc1,/,-1.15
Cc1ccc2c(CC(=O)O)coc2c1,0.03,-0.2
COc1cc(OC)nc(-c2cccc(NC(=O)CSc3nc(C)cc(C)n3)c2)n1,-0.735,/
O=C(O)C1COc2ccccc2C1 (centres undefined),/,-0.6
CC(C)(C)C(=O)NCC12CC3CC(CC(C3)C1)C2,0.19,0.05
O=C(CO/N=C/c1ccco1)Nc1ccc(OC(F)F)cc1,/,-0.05
COc1ccc(-n2c(SCc3ccccc3)nc3nc4c(cc3c2=O)COC(C)(C)C4)cc1,-0.1,/

# The final 5 records of the section before lead into the next:
SMILES,Ba CapD inh,AID504770
COc1cc(OC)nc(-c2cccc(NC(=O)CSc3nc(C)cc(C)n3)c2)n1,-0.735,/
O=C(O)C1COc2ccccc2C1 (centres undefined),/,-0.6
CC(C)(C)C(=O)NCC12CC3CC(CC(C3)C1)C2,0.19,0.05
O=C(CO/N=C/c1ccco1)Nc1ccc(OC(F)F)cc1,/,-0.05
COc1ccc(-n2c(SCc3ccccc3)nc3nc4c(cc3c2=O)COC(C)(C)C4)cc1,-0.1,/
CSc1sc(C2=NNC(O)(C(F)(F)F)C2)c2c1C(=O)CCC2(C)C (centres undefined),8.06,-0.35
CN(C)S(=O)(=O)c1ccc(N2CCCC2)c(C(=O)OCn2nnc3ccccc3c2=O)c1,/,0.45
CCN(C(=O)Cn1cc(C(=O)c2cccs2)c2ccccc21)c1ccccc1,-1.02,0.4
CCCCCCC#CCOC(=O)NC1CCN(Cc2ccc(Cl)c([N+](=O)[O-])c2)C1 (centres undefined),-0.765,/
COC(=O)c1ccc(/C=N\NC(=O)CNc2ccc(C)cc2)cc1,0.315,-0.05
CC(C)(C)c1ccc(NC(=O)NNc2ncccc2C#N)cc1,0.78,-0.4
COc1cccc(CN(Cc2nnnn2C2CCCCC2)CC2CCCO2)c1 (centres undefined),/,-0.25
COc1ccc(NC(=O)CN(C)c2nc3cc(C)nn3c3ccccc23)cc1,/,0.9
O=C(CCN1CCCC1)c1ccc(-c2ccccc2)cc1,1.09,0.45
CCOC(=O)c1ccc(N2CCCC2)cc1,0,-0.15
Cc1cc(C)n2nc(CC#N)c(C#N)c2n1,30.5,1.05
O=C(COc1ccccc1)N/N=C/c1ccccc1,/,0.1
COc1cccc(NC(=O)CSc2ncnc3ccccc23)c1,-0.985,-0.95
COc1nc(NCCN2CCOCC2)nc(Nc2ccc(Cl)cc2)n1,-0.26,/
C=CCn1c(SCC(=O)NCc2ccco2)nc2sc3c(c2c1=O)CCC3,0.05,/
CN(C)C1(c2nnnn2CCOC(=O)Nc2ccc(Cl)cc2)CCCC1,-0.235,/
Cc1nc2cccc(C(=O)NCc3ccccc3)c2o1,0.34,-0.15
COc1ccc(C2/C(=C(\O)c3ccc(C)cc3)C(=O)C(=O)N2c2ccccn2)cc1OC (centres undefined),-0.615,/
CC(C)c1ccc(NC(=S)Nc2cccc(C(F)(F)F)c2)cc1,-0.535,-0.4
O=C(NCc1ccc(-c2csnn2)cc1)c1cc(Cl)cc(Cl)c1,-0.6,0.5
C#CCSc1nc2c(c(=O)n1C1CCOC(C)(C)C1)C1(CCCC1)Cc1ccccc1-2 (centres undefined),0,/
C=CCN1CNc2c(c(=O)[nH]c(=S)n2-c2cccc(C)c2C)C1,-0.145,1.45
N#CC1=C(SCC(=O)N(c2ccccc2)c2ccccc2)NC(=O)CC1c1ccco1 (centres undefined),-0.175,1.3
Cc1cccc(C(=O)C2CCN(S(=O)(=O)c3ccc(C(=O)O)cc3)CC2)c1,/,0.25
COc1cc(OC)cc(-c2nnc(SCC(=O)N=c3sccn3Cc3ccc(C)cc3)o2)c1,/,0.7

# Of the compounds above, these contain a thiophene ring, fused or not:
SMILES,Ba CapD inh,AID504770
CC(=O)N1CCc2cc(NC(=S)NCc3cccs3)ccc21,-0.945,-0.1
COc1ccc(CCn2c(SCC(N)=O)nc3c(sc4ccccc43)c2=O)cc1OC,-0.65,3.15
CSc1sc(C2=NNC(O)(C(F)(F)F)C2)c2c1C(=O)CCC2(C)C (centres undefined),8.06,-0.35
CCN(C(=O)Cn1cc(C(=O)c2cccs2)c2ccccc21)c1ccccc1,-1.02,0.4
C=CCn1c(SCC(=O)NCc2ccco2)nc2sc3c(c2c1=O)CCC3,0.05,/

# (next part)
SMILES,Ba CapD inh,AID504770
COc1ccc2c(c1)[nH]c1c(=O)n(CCN3CCCCC3C)cnc12 (centres undefined),2.19,0.25
Cc1cc(C)c(I)c(C)c1,-0.855,/
Cc1cc(C)nc(NS(=O)(=O)c2ccc(NC(=O)c3ccc(Br)o3)cc2)n1,-0.255,/
Cn1c(SCC(=O)Nc2ccccc2)nnc1-c1cncc(C#Cc2ccccc2)c1,0.025,-1.9
Cc1ccc(C)c(NCN2C(=O)CSC2=O)c1,-0.44,1.7
Cc1nn(C(=O)c2ccccc2)c(C)c1Oc1ccccc1,0.325,-0.55
CCCNC(=O)C1CC(c2ccc(OC)cc2)=NO1 (centres undefined),32.4,0.3
COC(=O)C(C)Sc1ncnc2c1oc1ccccc12 (centres undefined),0.345,-0.35
COC(=O)CCc1[nH]c2ccccc2c1Sc1ccccc1,0.185,0.9
COc1ccccc1-c1nnc(SCC(=O)C(C)(C)C)n1Cc1ccco1,/,-0.7
O=C(NCCN1CCOCC1)c1c(Cl)cccc1Cl,/,1.3
Cc1cnc(NC(=O)c2cccc3ccccc23)s1,/,-0.5
CCC(C)N1C(=O)N(c2cccc(Cl)c2)C(n2oc(=O)n(-c3cccc(Cl)c3)c2=O)C1(C)C (centres undefined),6,/
Cn1c2c(c(=O)n(C)c1=O)C(c1ccc(O)c(O)c1)C1=C(N2)c2ccccc2C1=O (centres undefined),-0.595,/
CN(C)C(=O)Oc1ccc(Cl)c2cccnc12,10.7,-0.85
c1c2c(cc3c1OCO3)OCN(CC13CC4CC(CC(C4)C1)C3)C2,-0.245,-0.55
Cc1ccccc1NC(=O)C1CC(O)CN1C(=O)OCc1ccccc1 (centres undefined),0.615,0.2
CC1CCN(C(=O)c2ccccc2NC(=O)Nc2ccccc2)CC1,-0.415,-0.95
COC(=O)c1ccccc1NC(=O)COC(=O)/C=C/c1ccco1,/,-0.75
CNC(=S)NNc1cc(C)c2c(C)nn(C)c2n1,0.7,0.8
C=C(C)Cc1c(C)nc(-c2ccc(C)c(Cl)c2)nc1OC(=O)N(C)C,0.42,2.05
NC(=O)c1ccc(NC(=O)c2cc3c(s2)CCC3)cc1,0.33,-0.1
CCNc1nc2ccccc2s1,/,-1.3
Nn1c(CCn2c3ccccc3c3ccccc32)n[nH]c1=S,/,-0.75
O=[N+]([O-])c1ccc(C2N(Cc3ccccc3)CCC3CCCCN32)cc1 (centres undefined),-0.17,/

# Complete entries, quoted from the list:
# Cc1cc(C)c(I)c(C)c1 in the list: Ba CapD inh: -0.855; AID504770: /
# C=C(C)Cc1c(C)nc(-c2ccc(C)c(Cl)c2)nc1OC(=O)N(C)C in the list: Ba CapD inh: 0.42; AID504770: 2.05
# NC(=O)c1ccc(NC(=O)c2cc3c(s2)CCC3)cc1 in the list: Ba CapD inh: 0.33; AID504770: -0.1

# Remaining list, next part.
SMILES,Ba CapD inh,AID504770
S=c1[nH]c(=S)c2cnc(N3CCOCC3)nc2[nH]1,0.375,0.5
O=C(CSc1nc2scc(-c3cccs3)c2c(=O)n1-c1ccccc1)NCc1ccco1,4.62,0.95
CC1=CCC(C(C)(C)NC(=O)c2ccccc2)C/C1=N/O (centres undefined),-0.045,-0.65
CCOC(=O)C1CCN(C(=O)COc2ccccc2)CC1,0.59,-0.15
CCOC(=O)c1c(C)n(-c2ccccc2C)c2ccc(OC(=O)c3ccccc3)cc12,-0.265,/
C=CCn1c(SC(C#N)Cc2ccc(C)cc2)nnc1C1COc2ccccc2O1 (centres undefined),/,0.55
CC(C)c1ccc(Nc2cc(=O)[nH]n2C)cc1,0.3,/
Cc1cccc(C(C)C)c1NC(=O)COC(=O)c1cccnc1Cl,0.3,0.35
CNC(=S)NNC(=O)c1sccc1OCc1ccc(Cl)cc1Cl,5,/
O=C(c1ccc2c(Cl)c3c(nc2c1)CCCC3)N1CC=C(c2ccccc2)CC1,-1.72,1.85
COc1ccc(NC(=O)CC2SC(N)=NC2=O)cc1 (centres undefined),0.33,0.5
Cc1cc2nc(-n3nnc4ccccc43)c3ccccc3n2n1,/,-0.1
COC(=O)CSc1nc(N)nc(C)c1Br,0.23,-0.3
C=CCn1c(C)c(C(=O)OC)sc1=Nc1ccccc1,/,0.85
CC(C)CCNC(=O)c1c[nH]c2ccc(S(=O)(=O)N3CCc4ccccc43)cc2c1=O,0.095,0.25
C/C(=N\OCc1nc2c3c(-c4ccccc4)c(-c4ccccc4)oc3ncn2n1)c1ccccc1,0.825,/
COc1ccc(C(CC(=O)c2ccco2)Sc2cccc3cccnc23)cc1OC (centres undefined),-2.16,1.2
CC(C)C(O)(C#CCN1CCCCC1)C(C)C,0.39,-0.55
COC(=O)c1cc(COC(=O)CCc2nc3ccccc3s2)oc1C,/,-0.1
C=CCn1cnnc1SCC(=O)c1ccccc1OC,/,0.2
N#CSCC(=O)c1ccc(F)c(F)c1,-0.245,/
O=c1[nH]nc(SCc2ccccc2)n1-c1cccc(Cl)c1,1.15,0.2
O=S1(=O)CCC(NS(=O)(=O)/C=C/c2ccccc2)C1 (centres undefined),0.145,-0.55
CC(C)c1nc2ccccc2n1C(C)C(=O)O (centres undefined),0.45,-0.55
Cc1nc(N2CCOCC2)nc(N2CCN(c3ccccc3)CC2)c1[N+](=O)[O-],-1,/
SMILES,Ba CapD inh,AID504770
CCCC(C#CCN1CCCCC1)OC(C)=O (centres undefined),0.005,-1.05
Cc1ccc2oc(=O)c3cnn(CC(=O)NCCN(C)C)c3c2c1,0.34,1.15
CC(Cc1nnc(SCC(=O)c2ccc[nH]2)n1N)c1ccccc1 (centres undefined),/,-0.5
Cn1nccc1Nc1ccc(OC(=O)c2ccnn2C)cc1,0.17,0.3
Cc1c(NC(=O)CCN2C(=O)/C(=C/c3ccccc3Cl)SC2=S)c(=O)n(-c2ccccc2)n1C,0.89,/
Cc1c(Cl)cccc1N1CC(C)(C)C1=O,-0.435,-0.4
O=C1c2oc3ccccc3c(=O)c2C(c2ccc(F)cc2)N1c1ccccn1 (centres undefined),0.285,0.85
Cc1ccc(S(=O)(=O)c2ccc(NC(=O)c3c(F)cccc3F)cc2)cc1,-0.805,/
COC(=O)C1=C(C)NC2(O)c3ccccc3C(=O)C12O (centres undefined),-0.525,/
O=C1OCc2cccc3cccc(c23)S(=O)c2cccc3cccc1c23 (centres undefined),0.56,0.6
Cn1nc(CC(=O)NCCN2C(=O)CSC2=O)c2ccccc2c1=O,0.305,-0.55
CS(=O)(=O)c1ccc2nc(NC(=O)CN3C(=O)c4ccccc4C3=O)sc2c1,/,-0.35
COC(=O)Nc1sc(-c2ccccc2)nc1-c1ccccc1,36.9,0.15
C=CCSc1ncnc2sc3c(c12)CCCC3,-0.095,-0.45
CCN(CC)S(=O)(=O)N1CCC(C(=O)NCCC2=CCCCC2)CC1,0.12,0.15
COc1ccc(CNC(=O)COC(=O)c2ccccc2NS(C)(=O)=O)cc1OC,/,0.7
CC(C)CCCC(C)C1CCC2C3CC=C4CC(OC(=O)c5ccccc5Cl)CCC4(C)C3CCC12C (centres undefined),-0.33,/
Cc1ccc(N2C=NNC(=O)C2)cc1C,-0.14,-0.7
Cn1cnnc1SCC(=O)Nc1ccc2nc(SCC(=O)NC3CCCCC3)sc2c1,0.11,/
CCOc1ccc(-n2ccnc2SCC(=O)Nc2ccccc2)cc1,/,-0.55
Clc1ccccc1CSc1cnc2ccccc2n1,0.325,1.7
COc1ccccc1CC(=O)NC1CCCCC1,/,-0.55
CC1(C)CC(=O)c2sc(NC(=O)c3ccc(S(=O)(=O)N4CCc5ccccc54)cc3)nc2C1,-0.41,/
CC1CCCCN1S(=O)(=O)c1ccc(NC(=O)/C=C/c2ccco2)cc1 (centres undefined),-0.31,1.35
